Bioassay records deposited in PubChem BioAssay by National Center for Advancing Translational Sciences (NCATS).
ClpP mod: qHTS Assay for Activators of ClpP; purified B. subtilis ClpP, FRET peptide cleavage, 20 min; Potency, µM (series often up to 57.5 µM), without a hit: at the highest dose activity change, negative = active; 340,000 compounds, 1.9% hits; AID 651965, 2013; active = well fitted falling curve with a large enough effect; inconclusive = small, poorly fitted or top-dose-only effect; inactive = no such curve, though single readings can be large or run the other way; also: potency is read from the fitted curve at half-maximal effect; the source files actives as falling curves though it sought activators and does not explain the sign; nearly all actives have a fitted effect of over 65% in size; many hits overshoot -100%
Target sequence (P80244 whole entry, looked up): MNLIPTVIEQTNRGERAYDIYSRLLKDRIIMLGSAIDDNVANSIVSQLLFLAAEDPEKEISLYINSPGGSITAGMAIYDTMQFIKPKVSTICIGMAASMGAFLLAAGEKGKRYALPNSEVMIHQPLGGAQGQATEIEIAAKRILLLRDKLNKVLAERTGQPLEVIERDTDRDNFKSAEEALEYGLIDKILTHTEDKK
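Purified B. subtilis ClpP, 10 microg/mL final in Tris/HCl pH8 with KCl, BSA, glycerol and Tween-20, cleaved an Abz/nitrotyrosine-quenched decapeptide. Fluorescence (ex 320, em 430) was read at 0 and 20 min at room temperature. Delta was normalized to 5.8 microM ADEP and DMSO/no-enzyme controls.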
Menin-MLL FL inh: displaces fluorescein MLL peptide from human menin. FP activity change, % at 61.4 µM. 290,000 tested, under 10 active. Fluorescence polarization, fluorescein-MLL peptide displacement from menin; inconclusive = falling polarisation curve, or a change in total fluorescence; inactive = total fluorescence flat and polarisation flat or rising; no compound was filed as active; the % refers to the polarisation; negative = inhibition;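 also: % of control where 0% means no effect; inhibitors lower the polarisation; unlabelled MLL peptide was the positive control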
Sfp inh: inhibitors of Bacillus subtilis Sfp phosphopantetheinyl transferase | Q9F4F7 | Biochemical Sfp PPTase activity, qHTS | Potency, µM, for the others: max response, negative = inhibition, actives largely listed as inhibitors | 310,000 compounds, 3.5% hits; active = well fitted inhibition curve with a large enough effect; inconclusive = small, poorly fitted or top-dose-only effect, or another doubt; inactive = no such curve, though single readings can be large or run the other way;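 also: the enzyme is Sfp with the accession as filed and its product quenches rhodamine fluorescence; potency is read from the fitted curve at half-maximal effect; 0% = enzyme reaction without inhibitor and -100% = no enzyme wells; top concentration of the series not given in the record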
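Compounds were incubated with enzyme (final 15 nM) for 15 min at room temperature before substrate addition started the reaction. Fluorescence at 525 nm excitation, 598 nm emission was recorded immediately and after 30 minutes.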
PINK1 modulator: modulators of PINK1 expression; PINK1 immunofluorescence, high-content cytometry, 24 h; Potency, µM (titrated, usually from 76.6 µM), for the others: top-dose activation (PINK1 increase), usual class: activators; 410,000 compounds, 0.2% hits; AID 624263; active = well fitted activation curve with a large enough effect; inconclusive = small, poorly fitted or top-dose-only effect; inactive = flat fitted curve, though single readings scatter; cell line not stated here;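 also: potency is read from the fitted curve at half-maximal effect; % of control where 0% means no effect; nearly all actives have a fitted effect of over 65% in size; a mitochondrial uncoupler was the plate control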
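PINK1 protein, normally rapidly degraded, was detected by immunofluorescence after 24 hour compound treatment of a stable cell line. Titration data (5 concentrations) came from laser-scanning cytometry, with CCCP-treated wells as controls.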
TRPML1 inh: inhibitors of human TRPML1 channel | activity change, negative = inhibition, % (test concentration not listed) | TRPML1-inducible cells, Ca2+ dye fluorescence, FDSS; active compounds read low; inhibition of EC80 agonist-evoked calcium signal | Q9GZU1 | 390,000 compounds, 0.02% hits | AID 624415; in the data active means activity change below about -50%; inconclusive means about -30% to -50%; inactive means above about -30%;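 also: stimulus is agonist 54-4 at its EC80 concentration; % is scaled to controls: 0 for no effect and ±100 for the full control effect; compound concentration not given in the record; the text of the record puts the active cut at -80%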
Target sequence (Q9GZU1 whole entry, looked up): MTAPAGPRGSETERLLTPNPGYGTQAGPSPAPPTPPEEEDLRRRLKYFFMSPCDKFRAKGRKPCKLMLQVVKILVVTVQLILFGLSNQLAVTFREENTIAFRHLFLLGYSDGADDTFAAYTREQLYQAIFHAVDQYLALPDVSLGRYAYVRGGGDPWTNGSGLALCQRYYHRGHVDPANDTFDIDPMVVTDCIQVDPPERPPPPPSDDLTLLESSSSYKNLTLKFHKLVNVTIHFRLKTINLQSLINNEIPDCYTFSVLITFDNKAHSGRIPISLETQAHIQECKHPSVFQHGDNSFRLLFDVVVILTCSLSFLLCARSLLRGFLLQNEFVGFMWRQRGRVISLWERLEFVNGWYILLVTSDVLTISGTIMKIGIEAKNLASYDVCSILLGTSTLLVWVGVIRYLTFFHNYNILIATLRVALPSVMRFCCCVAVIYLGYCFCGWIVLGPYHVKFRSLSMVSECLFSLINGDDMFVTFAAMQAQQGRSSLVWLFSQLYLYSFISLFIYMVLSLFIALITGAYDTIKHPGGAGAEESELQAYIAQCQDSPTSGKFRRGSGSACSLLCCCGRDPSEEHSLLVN
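Calcium fluorescence in TRPML1-DL cells induced overnight with Tet: a 110 s read after compound pin addition, then a 110 s antagonist read after challenge with 54-4 at 4 uM final (EC80).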
TRPML1 ag: human mucolipin-1 channel agonism. 410,000 compounds, 0.12% hits. activation, % (concentration not given with the values). TRPML1-expressing cells, Ca2+ dye fluorescence, FDSS; host cell line not named in the record; reference of the full effect not given here. AID 624414. Q9GZU1; in the data active = activation above about 50%; inconclusive = about 30% to 50%; inactive = below about 30%; also: 0% is about no effect; the text of the record puts the active cut at 80%
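Tet-induced TRPML1-DL cells, 1,500 per well, cultured overnight, were loaded with a no-wash Ca2+ dye for 45–90 min. Calcium fluorescence was recorded on the FDSS for 110 s after compound addition, before the EC80 agonist (4 uM 54-4) was added.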
TRPV1 potentiator: enhances activation of the human vanilloid receptor TRPV1 | Q8NER1 | TRPV1-expressing cells, Fluo-8 calcium influx, capsaicin EC20 potentiation; host cell line not named in the record; control for the full effect not named in the record | potentiation, % at 8.33 µM | 320,000 compounds, 0.02% hits | AID 540277; active means potentiation above 80%; inconclusive means 30% to 80%; inactive means below 30%; also: 0% is about no effect
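Fluo-8 calcium influx in TRPV1-expressing cells, kinetic read (ex 480/em 520 nm). Compound added and read 3 min for agonist activity, followed by capsaicin at EC20 final and 2 min further read for enhancement.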
The depositor's hits bear a star; ? = inconclusive; . = not tested or not shown; & = joins results of further samples; [ ] = dose if it differs, or a comment.

SMILES	ClpP mod	Menin-MLL FL inh	Sfp inh	PINK1 modulator	TRPML1 inh	TRPML1 ag	TRPV1 potentiator
CCCC(=O)Nc1nc2ccc(OC)cc2s1	-2.6%	-0.6	-10.9%	0.6%	12.0	-1.0	14.6
Cc1ccc(C(=O)OCN2C(=O)c3ccccc3C2=O)o1	.	.	.	0.7%	-3.5	0.8	4.9
CCCCNS(=O)(=O)c1ccc(NC(=O)C2CCCO2)cc1 (configuration not stated)	-1.7%	2.2	17.5%	-0.4%	8.3	-0.2	-1.1
CC1(C(=O)Nc2ccc3c(c2)OCO3)Cc2c(-c3ccccc3)ccnc2O1 (configuration not stated)	-2.7%	.	.	2.5%	15.4	0.7	.
COc1cc(/C=C/C(=O)N2CCCc3ccccc32)cc(OC)c1OC	-2.9%	7.2	-0.2%	4.6%	12.7	1.4	-7.6
CCCOC(=O)C1=C(C)NC2=C(C(=O)CCC2)C1c1cc(OC)ccc1OC (configuration not stated)	-9.6%	4.8	9.7%	2.0%	-13.4	-0.6	-4.3
COCCCC1CCN(C(=O)c2cc(COc3cc(C)ccc3C)on2)CC1	-0.7%	.	-20.3%	0.3%	1.1	-1.2	16.6
Cc1nc(SCC(=O)Nc2ccccc2Cl)c2c(C)c(C)sc2n1	-2.0%	.	.	6.0%	11.5	1.9	-1.8
CCOc1cc(C(=O)Nc2ccncc2)cc(OCC)c1OCC	.	2.3	?	-1.5%	-8.3	1.3	5.9
CCC(C(=O)NCc1ccc2c(c1)CCN2C(=O)c1ccc(F)cc1)c1ccccc1 (configuration not stated)	-2.2%	.	.	1.0%	-22.1	0.4	.
COc1ccccc1-c1nnc(N(C)C(=O)C2CCCO2)s1 (configuration not stated)	244.5%	3.4	19.4%	-1.1%	-1.3	-0.2	?
O=C(CCNC(=O)c1ccc([N+](=O)[O-])cc1)NC1CCCCC1	.	.	.	-1.6%	-7.6	0.7	?
COc1cccc(Cn2c(=O)c(-c3cc(F)cc(F)c3)nc3cnc(N(C)C)nc32)c1	.	?	29.2%	3.9%	.	.	.
O=S1(=O)CCN(Cc2ccc(Cl)cc2)CC1	1.1%	-1.1	0.8%	1.8%	5.3	-0.9	-5.8
COc1cccc2sc(NC(=O)c3ccc(S(=O)(=O)N4CCC(C)CC4)cc3)nc12	?	.	.	-1.4%	-12.2	1.5	.
COc1ccc(C(=O)NC(=S)Nc2ccccc2F)cc1	-14.7%	-0.5	-9.0%	-1.5%	22.4	-0.2	7.7
Cc1ccc(NC(=O)c2cnc(SCC(=O)N3CCCc4ccccc43)n(C)c2=O)cc1C	?	.	.	13.5%	-19.4	0.0	.
Clc1ccc2nc(SCc3nnc(-c4ccccc4)o3)[nH]c2c1	0.3%	-2.1	8.8%	2.0%	-3.3	1.0	-14.1
CCOC(=O)C1CCN(C(=O)c2ccc3c(c2)OCCO3)CC1	-1.0%	.	.	0.4%	-0.4	-1.0	.
CCOc1cc(NC(=S)NCC2CCCO2)c(OCC)cc1NC(=O)c1ccc(OC)cc1 (configuration not stated)	-12.5%	3.4	-30.0%	0.7%	-1.3	0.3	-11.8

Taken from above:
PINK1 modulator with CCOC(=O)C1CCN(C(=O)c2ccc3c(c2)OCCO3)CC1 : 0.4%
TRPV1 potentiator with Cc1nc(SCC(=O)Nc2ccccc2Cl)c2c(C)c(C)sc2n1 : -1.8

(more compounds)
SMILES	ClpP mod	Menin-MLL FL inh	Sfp inh	PINK1 modulator	TRPML1 inh	TRPML1 ag	TRPV1 potentiator
CCC1(C)Cc2c(sc3nnn(CC(=O)Nc4ccccc4)c(=O)c23)CO1 (configuration not stated)	-2.9%	4.9	-4.5%	8.5%[38.3 µM]	61.1	0.6	-27.6
COc1ccccc1NC(=O)NC1(C(=O)N2CCCCC2)CCCCC1	.	1.4	27.7%	-0.3%	25.9	1.4	8.6
CCc1ccc(Nc2ncc3c(n2)CC(c2ccc(OC)cc2)CC3=O)cc1 (configuration not stated)	-24.9%	2.9	16.1%	9.2%[38.3 µM]	16.5	0.1	1.2
Cn1c(=O)[nH]c(=O)c2c1nc(NN)n2CCOc1ccccc1	1.7%	8.8	25.1µM*	-1.8%	14.5	-1.2	-1.1
COC(=O)c1ccc(NS(=O)(=O)N(C)C)cc1	-0.1%	1.8	11.0%	0.3%	7.6	1.3	5.0
CC(=O)c1ccc(N(C(=O)Cn2nnc(-c3ccccc3)n2)C(C(=O)NC2CCCCC2)c2ccccn2)cc1 (configuration not stated)	3.3%	3.3	-7.0%	2.1%	15.1	0.6	26.8
COc1cc(/C=C(\C#N)C(=O)Nc2cccc3ncccc23)cc(OC)c1OC	?	?	-8.6%	4.6%	-2.1	0.2	-1.1
Cn1cnnc1SCC(C)(C)NS(=O)(=O)c1ccc(Cl)cc1	.	-1.8	12.5%	0.5%	-0.8	-0.8	-1.2
CCCCOC(=O)c1c(C)oc2c1cc(NS(=O)(=O)c1cc(OC)ccc1OC)c1ccccc12	-3.9%	.	.	-1.4%	-6.9	0.3	.
Cc1cccc(NC(=O)c2cc(NC(=O)C3CCCCC3C(=O)O)ccc2N2CCOCC2)c1 (configuration not stated)	-28.9%	.	5.5%	-1.1%	15.0	1.0	-19.3
CCC(C(=O)NC1CCCC1)N(C(=O)Cn1nnc(-c2ccc(C)o2)n1)c1cnc2ccccc2c1 (configuration not stated)	3.0%	5.9	?	14.4%[38.3 µM]	-1.7	0.8	?
Cc1ccc(NCc2nc3ccccc3n2C)cc1	14.1µM*	5.1	?	-0.7%	-8.2	0.1	.
COc1ccc(OC)c(C2CC(c3c(-c4ccccc4)c4cc(Cl)ccc4[nH]c3=O)=NN2S(C)(=O)=O)c1 (configuration not stated)	35.1%	21.2	44.7µM*	9.4%	14.8	0.3	11.2
COc1ccc(CN2CC(C(=O)NCCN3CCN(c4ccccc4F)CC3)CC2=O)cc1 (configuration not stated)	-1.4%	0.6	-7.7%	-0.4%	3.0	-0.2	-5.3
CC(Sc1nnc(-c2ccc(Cl)cc2)n1N)C(=O)NCC1CCCO1 (configuration not stated)	0.2%	.	.	-0.4%	20.5	0.8	0.4
CCCNC(=O)CN(C)CC(=O)Nc1ccccc1C#N	2.3%	2.5	-11.1%	-1.8%	-12.2	-0.3	2.7
CCN(C(=O)CCS(=O)(=O)c1cc2c(cc1C)NC(=O)CO2)c1cccc(C)c1	2.4%	.	.	-0.9%	6.9	2.7	.
CC(C)(C)c1cc[n+](-c2[nH]c(=O)sc2/C=N/NC([S-])=Nc2ccccc2)cc1	.	?	35.5µM*	10.0%	14.7	8.0	-6.3
Cc1cccc(C(=O)NCC(=O)OCC(=O)N2CC3(C)CC2CC(C)(C)C3)c1 (configuration not stated)	-1.1%	2.3	-0.7%	-0.7%	5.8	-0.2	-0.6
CCN(CC)c1ccc(/C=N/NC(=O)c2c(Cl)cnn2C)c(O)c1	-6.1%	.	-9.6%	-0.6%	51.8	0.7	-3.5

Reprinted from the results shown, 4 compounds:
SMILES	ClpP mod	Menin-MLL FL inh	Sfp inh	PINK1 modulator	TRPML1 inh	TRPML1 ag	TRPV1 potentiator
CCC1(C)Cc2c(sc3nnn(CC(=O)Nc4ccccc4)c(=O)c23)CO1 (configuration not stated)	-2.9%	4.9	-4.5%	8.5%[38.3 µM]	61.1	0.6	-27.6
COc1ccccc1NC(=O)NC1(C(=O)N2CCCCC2)CCCCC1	.	1.4	27.7%	-0.3%	25.9	1.4	8.6
CCc1ccc(Nc2ncc3c(n2)CC(c2ccc(OC)cc2)CC3=O)cc1 (configuration not stated)	-24.9%	2.9	16.1%	9.2%[38.3 µM]	16.5	0.1	1.2
Cn1c(=O)[nH]c(=O)c2c1nc(NN)n2CCOc1ccccc1	1.7%	8.8	25.1µM*	-1.8%	14.5	-1.2	-1.1

Next section.
SMILES	ClpP mod	Menin-MLL FL inh	Sfp inh	PINK1 modulator	TRPML1 inh	TRPML1 ag	TRPV1 potentiator
C=CCc1cc2c(oc(=O)c3ccccc32)c(C)c1O	.	11.4	12.9%	1.5%	-3.8	-0.4	-8.2
Cc1ccc(NC(=O)NCCN2CCCCC2)cc1	.	-12.8	16.6%	2.4%	22.0	0.1	0.2
CCOC(=O)C1=CCC2C(=O)N(C)C(=O)C12 (configuration not stated)	-2.1%	.	.	2.2%	-3.9	-0.1	.
CCCNC(=O)CN(C)S(=O)(=O)c1c(C)cc(C)cc1C	-0.7%	4.8	14.4%	1.8%	7.5	-0.1	-3.0
Cc1ccsc1/C=N/NC(=O)c1c[nH]c2ccccc12	0.3%	6.2	1.1%	-1.1%	-7.4	-0.2	-7.6
OCCNCCOc1ccc(Cl)c(Cl)c1	1.2%	2.9	4.7%	-0.6%	-4.8	-1.4	-7.6
CSc1nc2ccsc2c(=O)n1-c1ccccc1	.	-1.6	10.5%	3.8%	18.8	-0.4	-0.4
COc1ccc(C(C)=O)cc1CS(=O)(=O)CC(=O)O	.	0.1	6.5%	1.7%	21.7	0.1	10.6
O=C(COc1ccc(Cl)cc1Cl)Nc1ccc2nc3n(c(=O)c2c1)CCCC3	-4.6%	-0.5	2.6%	0.4%	-10.7	-1.5	3.3
CCOc1ccccc1CN1CCC(n2nccc2NC(=O)CCCc2ccccc2)CC1	-0.3%	.	3.1%	3.1%	17.6	0.8	-5.2
O=C(Nc1ccc(Cl)c(-c2nc3ccccc3o2)c1)c1ccc(-c2cccc([N+](=O)[O-])c2)o1	-3.1%	.	.	0.6%	48.1	5.2	.
O=C(c1ccc([N+](=O)[O-])cc1)N1C=CC(C(F)(F)F)=NCC1	.	-0.7	17.2%	1.8%	-8.8	-0.2	-6.1
Cc1ccc(-c2cc3ccccc3nc2N2CCOCC2)cc1	.	-1.3	0.7%	5.8%	-0.3	3.2	-2.4
O=C(c1ccccc1[N+](=O)[O-])N1CCN(Cc2ccc3c(c2)OCO3)CC1	-1.2%	3.2	5.8%	2.8%	10.5	2.4	-3.4
CC12CN3CC(C)(CN(C1)C3c1cc3ccccc3[nH]1)C2=O (configuration not stated)	1.4%	0.6	4.8%	3.5%	-6.4	-0.1	1.2
CCN(Cc1ccccc1)C(=O)CCS(=O)(=O)c1ccc2c(c1)CCN2C(C)=O	-2.9%&-1.3%	-0.5	8.6%	2.9%&0.4%	40.4&6.6	0.5&-0.7	0.6
O=C(COC(=O)C1CCC1)NCc1ccccc1Cl	-0.8%	0.2	4.0%	-1.8%	-4.5	-1.2	-2.5
COc1ccc(NC(=O)NC2CCCc3ccccc32)c(OC)c1 (configuration not stated)	-0.6%	6.6	4.1%	6.9%	-9.1	-0.9	3.4
